D2 PAM: human D2 receptor positive allosteric modulation. P14416. 0.23% of 360,000 active. potentiation, % (no concentration beside the values). DiscoveRx D2 beta-arrestin cells, luminescence, 90 min; 100% = 57 uM dopamine signal. AID 624464; active = potentiation of 50% or more; inconclusive = 30% to 50%; inactive = 30% or less;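 also: compound concentration not given in the record; tested on top of an EC20 dose of dopamine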
Target sequence (P14416 whole entry, looked up): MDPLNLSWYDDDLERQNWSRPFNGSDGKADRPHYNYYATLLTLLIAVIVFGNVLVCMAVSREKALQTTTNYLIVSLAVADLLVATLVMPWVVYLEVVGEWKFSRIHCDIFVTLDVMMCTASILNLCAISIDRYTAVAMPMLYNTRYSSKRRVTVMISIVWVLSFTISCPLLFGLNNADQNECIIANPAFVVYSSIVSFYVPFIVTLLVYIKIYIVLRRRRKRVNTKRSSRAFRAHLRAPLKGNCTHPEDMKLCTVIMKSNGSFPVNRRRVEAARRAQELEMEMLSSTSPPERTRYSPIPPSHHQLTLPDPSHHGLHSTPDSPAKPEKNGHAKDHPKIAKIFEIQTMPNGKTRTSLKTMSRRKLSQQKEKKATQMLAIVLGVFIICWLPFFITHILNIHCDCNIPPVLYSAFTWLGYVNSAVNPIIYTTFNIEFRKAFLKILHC
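PathHunter D2 cells, attached overnight at 37 deg C, received compound in DMSO plus dopamine at EC20 (50 nM final) for 90 min at 37 deg C. Beta-arrestin recruitment was read as luminescence after 1 h with detection reagent at ambient temperature.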
Six1-Eya2 blk: blocks human Six1 binding to Eya2 | AlphaScreen GST-Six1/His-Eya2 binding, biochemical; active compounds read low; control for the full effect not named in the record | activity change, % (no concentration beside the values) | 0.56% of 360,000 active; in the data active = activity change below about -65%; inconclusive = about -30% to -65%; inactive = above about -30%; also: % is scaled to controls: 0 for no effect and ±100 for the full control effect
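AlphaScreen with GST-Six1 and His-Eya2 (5X mix: 250 nM and 500 nM), glutathione donor and nickel acceptor beads; buffer 50 mM Tris pH 8.0, 300 mM NaCl, 1 mM TCEP; 1 h at 37 C in the dark.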
gsp antag: antagonists of gsp mutant (McCune-Albright syndrome) | AID 624288 | gsp-mutant cells, cAMP HTRF, 30 min; control for the full effect not named in the record | 0.4% of 340,000 active | Potency, µM (doses to about 76.9 µM), for the others: at the highest dose activity change, negative = inhibition, hits mostly inhibitors; active = falling curve of any shape with a large fitted effect; inconclusive = falling curve, mostly with a smaller effect; inactive = flat or rising curve; cell line not stated here;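 also: intracellular cAMP measured with PDE inhibitor Ro 20-1724 present during compound exposure; potency is read from the fitted curve at half-maximal effect; % is scaled to controls: 0 for no effect and ±100 for the full control effect; nearly all actives have a fitted effect of over 65% in size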
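Measurement of cellular cAMP by homogeneous time-resolved fluorescence following a 30 min compound exposure at 37C. The PDE inhibitor […] was present throughout; the assay buffer was DPBS with 0.05% BSA and 0.005% Tween 20.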
CtBP-E1A blk: inhibitors of CtBP/E1A interaction; AlphaScreen GST-E1A/His-CtBP binding, 1536-well; active compounds read low; control for the full effect not named in the record; activity change, % (no concentration beside the values); 0.49% of 340,000 active; AID 651724; in the data active means activity change below about -65%; inconclusive means about -30% to -65%; inactive means above about -30%; also: % is scaled to controls: 0 for no effect and ±100 for the full control effect
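Protein mix (5X: 125 nM each GST-E1A, His-CtBP) was incubated with pinned compound 2 h at 37 deg C in dark, in 50 mM Tris pH 8.0 buffer with 300 mM NaCl. Glutathione donor and nickel acceptor beads followed; AlphaScreen signal read after 1 h.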
D2 ag: agonists of human D2 dopamine receptor (beta-arrestin); P14416; DiscoveRx PathHunter D2 beta-arrestin, luminescence, 90 min; 100% = 57 uM dopamine signal; activation, % (test concentration not listed); 0.084% of 360,000 active; in the data active = activation above about 40%; inconclusive = about 15% to 40%; inactive = below about 15%; also: compound concentration not given in the record; the text of the record calls up to 30% inactive
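Agonist mode: compounds alone added to overnight-plated D2 PathHunter cells for 90 min at 37 C, with 57 uM final dopamine (EC100) defining full response. Beta-arrestin recruitment detected by chemiluminescent reagent, read after 1 h at ambient temperature.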
gsp agonist: agonists of gsp mutant (McCune-Albright syndrome) | 0.13% of 340,000 active | Potency, µM (doses to about 76.9 µM), for inactives: at the top dose activation (cAMP increase), hits mostly activators | gsp mutant cells, cAMP HTRF, 30 min; control for the full effect not named in the record; active = well fitted activation curve with a large enough effect; inconclusive = small, poorly fitted or top-dose-only effect, or another doubt; inactive = no such curve, though single readings can be large or run the other way; cell line not stated here;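 also: phosphodiesterase inhibitor Ro 20-1724 added with compounds to block cAMP breakdown; potency is read from the fitted curve at half-maximal effect; nearly all actives have a fitted effect of over 60% in size; about a fifth of the inactives were tested at one dose only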
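Cells stably selected in G418 were plated at 2000/well, grown 16-24 hr, then given compounds in DMSO with the PDE inhibitor […] (300 uM solution added) for 30 min at 37C; cAMP was read by HTRF.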
* marks the source's active call; other numbers are inactive results; ? = inconclusive; / = not tested or not shown; [ ] = dose if it differs, or a comment.

SMILES	D2 PAM	Six1-Eya2 blk	gsp antag	CtBP-E1A blk	D2 ag	gsp agonist
CC(C)CC(c1nnnn1CC1CCCO1)N1CCN(c2cccc(Cl)c2)CC1 (stereo not drawn)	-17.8	-4.5	2.6%[15.4 µM]	4.0	-2.1	10.3%
COc1ccc(NC(=O)CN2C(=O)NC3(CCCC3)C2=O)cc1OC	-4.7	7.2	4.0%	1.3	6.1	12.3%
O=C(c1ccc(Br)o1)N1CCN(C23CC4CC(CC(C4)C2)C3)CC1	-26.9	-1.6	-4.5%	4.6	-0.8	-39.4%[inhibitor]
Cc1c(Cl)cccc1NCC(=O)NN=C1CCCC1	-7.3	4.3	9.7%	3.5	-1.1	14.7%
C=C(C)c1cccc(C(C)(C)NC(=O)Nn2cnnc2)c1	-2.3	2.9	0.0%	7.0	-0.5	?
COc1cc(C2C(C#N)=C(N)Oc3cc(C)n(CCc4ccccc4)c(=O)c32)cc2c1OCO2 (stereo not drawn)	4.9	7.8	23.5%	-0.3	-0.2	16.4%
Cc1ccccc1C(=O)Nc1ccnn1C1CCN(Cc2cccnc2)CC1	-14.2	-2.5	4.3%	0.7	-6.8	0.0%
c1ccc(Cn2nnc3cnccc32)cc1	-6.6	4.3	-1.2%	9.9	-2.2	-22.1%
COc1ccc(-c2nn(-c3ccccc3)cc2C(=O)NCCCn2ccnc2)cc1	-24.2	-9.8	-1.2%	-1.6	-1.4	-47.2%[inhibitor]
CC(=O)Nc1ccc(NC(=O)C(OC(=O)c2ccccc2)C(OC(=O)c2ccccc2)C(=O)O)cc1 (stereo not drawn)	-5.8	-2.0	?	-4.8	-4.9	17.7%[15.4 µM]
Cc1nnc(SCC(=O)NC(=O)Nc2ccc3c(c2)OCCO3)s1	1.9	-17.8	-4.2%	-21.3	-1.7	6.9%[15.4 µM]
O=C1/C(=C/c2cccs2)CCc2ccccc21	-4.8	1.4	-27.7%	4.2	-4.8	?
CC(C)c1nc(SCC(=O)N2CCCCC2)c2c(=O)n(C)c(=O)n(C)c2n1	-10.8	5.6	/	-3.8	-7.2	4.7%
CC(C)(C)OC(=O)C[C@H]1C/C=C\C[C@@H](CC(=O)N(CCO)Cc2ccccc2)C(=O)N[C@@H](Cc2ccccc2)COC1=O	-13.9	-0.9	-23.1%	2.1	-2.7	/
COc1ccc(S(=O)(=O)Nc2cc(C(=O)NC(C)C)ccc2N2CCOCC2)cc1	-2.8	2.4	9.9%	2.9	-1.5	-1.6%
CCCCn1c(N)c(N(CCOC)C(=O)C2CCN(S(=O)(=O)c3ccc(C)cc3)CC2)c(=O)[nH]c1=O	-2.6	5.8	8.7%	-1.3	-1.1	0.1%
CC(C)Cc1nnc(NC(=O)CSc2ccccn2)s1	-2.1	11.5	7.2%	-1.0	3.7	8.8%
CC(=O)N1CCN(CC(=O)Nc2cccc(S(=O)(=O)N3CCCCCC3)c2)CC1	3.7	12.9	6.7%	0.0	2.1	1.5%
Cc1cnc(=O)[nH]c1SCc1ccc(C(F)(F)F)cc1	2.8	-0.4	6.4%	0.4	-2.5	-5.8%
CC(=O)Nc1ccc(NC(=O)C(C)OC(=O)CNC(=O)c2ccc(-c3ccccc3)cc2)cc1 (stereo not drawn)	-13.9	1.3	1.4%	-0.2	-6.6	7.6%
Cc1ccc(CNS(=O)(=O)c2ccccc2[N+](=O)[O-])cc1	-2.8	-4.3	9.3%	/	11.9	3.2%
Cc1ccc(C(=O)NCCNC(=O)c2ccccc2)cc1	-9.6	5.0	-3.3%	0.8	-2.6	-8.7%[15.4 µM]
CC(OC(=O)C1CSC2(c3ccc(F)cc3)CCC(=O)N12)C(=O)NC(N)=O (stereo not drawn)	-3.8	6.2	3.6%	10.4	-0.7	-16.7%[15.4 µM]
CCc1cc(=O)oc2cc(OS(C)(=O)=O)ccc12	-10.9	8.7	5.6%	6.5	0.8	-1.6%
COc1ccc(-c2oc(NC(=O)CSc3nncn3C)c(C#N)c2-c2ccc(OC)cc2)cc1	-3.4	-12.8	?	-1.0	-8.5	12.2%
O=C(c1ccc2nccnc2c1)N1CCN(c2cccc(C(F)(F)F)c2)CC1	-4.6	-6.7	-15.6%	3.3	-0.6	?
O=C(N/C(=C/c1ccco1)C(=O)N1CCCCCC1)c1cccs1	8.6	-15.3	-5.1%	-1.5	-1.9	1.0%
Cc1cccc(NC(=O)C2C(c3ccccc3)C2(Cl)Cl)c1 (stereo not drawn)	-10.2	7.9	-10.6%	7.2	0.1	?
Cn1c(=O)c2c(O)c(Cc3ccccc3)c(=O)[nH]c2n(C)c1=O	-9.7	-26.6	10.3%	0.2	-0.3	-9.2%[15.4 µM]
CCOc1cc(/C=C2\N=C(C)OC2=O)cc(Br)c1OCC(=O)OC	-3.2	3.9	-8.1%	3.4	-0.9	3.2%

Continued (3 carried over from the part before).
SMILES	D2 PAM	Six1-Eya2 blk	gsp antag	CtBP-E1A blk	D2 ag	gsp agonist
Cc1cccc(NC(=O)C2C(c3ccccc3)C2(Cl)Cl)c1 (stereo not drawn)	-10.2	7.9	-10.6%	7.2	0.1	?
Cn1c(=O)c2c(O)c(Cc3ccccc3)c(=O)[nH]c2n(C)c1=O	-9.7	-26.6	10.3%	0.2	-0.3	-9.2%[15.4 µM]
CCOc1cc(/C=C2\N=C(C)OC2=O)cc(Br)c1OCC(=O)OC	-3.2	3.9	-8.1%	3.4	-0.9	3.2%
O=C(COc1ccc(S(=O)(=O)NC2CCCC2)cc1)N1CCCCCC1	-5.9	5.8	10.9%	-2.4	-2.3	13.8%
CCCOc1ccc(N2C(=O)CC(N3CCN(c4ccc([N+](=O)[O-])cc4)CC3)C2=O)cc1 (stereo not drawn)	5.9	-13.4	-5.8%	-10.1	13.4	-54.0%[inhibitor]
Cc1cccc(NC(=O)Cn2nnc(C(=O)NCc3ccco3)c2N)c1	-3.6	-0.7	-6.7%	-13.7	-4.0	-73.8%[inhibitor]
CCN(CC)c1ncnc2c1ncn2[C@H]1CN(Cc2ccccc2)C[C@@H](COC(C)=O)O1	-12.9	1.6	/	-1.6	-2.0	/
O=C(CCCN1C(=O)/C(=C\c2cccc(Br)c2)SC1=S)Nc1cccnc1	-4.3	0.0	-1.6%	-4.6	1.8	-2.2%[15.4 µM]
CN(C)S(=O)(=O)c1cc(NC(=O)CSc2ncc(C(F)(F)F)cc2Cl)ccc1Cl	-8.2	2.5	-29.6%	12.1	-3.8	7.8%[15.4 µM]
C#CCOCCOCCOCCNc1nc(N2CCN(C(=O)[C@H]([C@@H](C)CC)n3cc(CCC(=O)O)nn3)CC2)nc(N2CCN(C(=O)[C@H](CCCCN)n3cc(CC(C)O)nn3)CC2)n1 (stereo partly drawn)	-9.0	1.5	3.3%	2.6	-2.2	/
Cc1ccc(S(=O)(=O)N(C)C)cc1NC(=O)c1cc(=O)[nH]c2ccccc12	-7.9	4.0	-8.8%	7.0	-2.6	28.5%
CCN(CC(=O)NC(=O)NCc1ccccc1)Cc1nc2ccccc2c(=O)[nH]1	15.2	5.2	7.1%	-6.6	-1.7	-9.9%[15.4 µM]
Cc1ccc(C)c(OCc2cc(C(=O)N(C)Cc3nccs3)no2)c1	-1.8	1.3	-12.6%	10.6	4.5	-67.8%[inhibitor]
CN(c1nc2ccccc2n2c(-c3ccco3)nnc12)S(=O)(=O)c1ccccc1	-8.5	4.2	1.8%	11.6	-5.2	-3.6%
Cc1ccc(CN2C(=O)N/C(=C\c3ccc(N4CCOCC4)cc3)C2=O)cc1	16.1	10.2	10.3%	0.1	4.4	19.7%[15.4 µM]
Cc1ccccc1OCC1Cn2c(nc3c2c(=O)n(C)c(=O)n3C)O1 (stereo not drawn)	5.9	-5.9	10.0%	-17.1	2.9	3.6%[15.4 µM]
O=C(c1cc2ccccc2oc1=O)N1CCOCC1	-3.6	-1.5	8.0%	-6.1	-1.0	3.4%[15.4 µM]
COc1ccc(N(CC(=O)Nc2nc3ccc(C)cc3s2)S(=O)(=O)c2c(C)nn(C)c2C)cc1	-3.7	?	-23.4%	-9.2	-3.5	-74.8%[inhibitor]
CCOc1ccc2[nH]cc(S(=O)(=O)c3ccc(C)cc3)c(=O)c2c1	-2.4	-10.1	-16.3%	-2.2	0.1	0.9%
O=C(COC(=O)c1cc(Cl)ccc1O)c1ccc2c(c1)OCO2	0.4	-0.6	-10.5%	-10.8	-4.8	-5.9%
O=C(CNC(=O)c1ccc(-c2ccccc2)cc1)Nc1ccc(S(=O)(=O)Nc2ncccn2)cc1	-17.7	-4.0	4.7%	/	-4.8	-36.1%[inhibitor]
CCc1nn(CC(=O)NCCCN(C)C2CCCCC2)c(=O)c2cc3occc3n12	-29.5	1.9	9.8%	-3.3	-7.8	-2.2%
CCCCC(c1nnnn1Cc1ccco1)N1CCN(c2nc3ccccc3s2)CC1 (stereo not drawn)	-10.4	-9.8	-16.6%	-16.6	-0.3	8.7%
Nc1nnc(SCC(=O)Nc2ccc3c(c2)OCCO3)s1	-8.1	-1.2	5.3%	-11.7	3.4	9.4%
COc1ccc(CC(=O)Nc2ccc(N3CCOCC3)cc2)cc1S(=O)(=O)N1CCOCC1	-8.2	1.4	-2.2%	-6.9	-5.5	-84.1%[inhibitor]
CCCCCC(=O)Nc1ccc(S(=O)(=O)Nc2ccc(Cl)nn2)cc1	-3.6	-3.2	-2.4%	-16.0	-0.5	-17.0%[15.4 µM]
CCOc1ccc(NC(=O)CN(C)C(=O)c2cc3c(s2)CCC3)cc1OCC	-11.3	-18.2	/	-2.8	-3.7	?
COc1ccc(N2CCN(CC(=O)Nc3ccc(C)cc3)CC2)cc1	-2.9	-18.0	-0.5%	/	4.9	-16.9%
CCCCC(=O)Nc1ccc(NC(=O)c2ccc3c(c2)OCO3)cc1OC	-11.3	-2.4	-7.1%	0.0	-0.7	-35.3%[inhibitor]
Cc1ccc(-n2[nH]c(C)c(/C=C3/C=Nc4ccccc43)c2=O)cc1C	-11.5	-2.5	2.5%	5.6	-2.0	3.0%
CCCC1C(=O)N2C(N(C)C)=Nc3ccc(C)cc3N2C1=O (stereo not drawn)	-10.5	-3.0	-10.1%	-2.4	-5.9	/
Cc1ccc(S(=O)(=O)N(C)C)cc1NC(=O)C(C)N(C)Cc1sccc1C (stereo not drawn)	-11.2	-7.9	?	6.3	-2.0	-1.4%[15.4 µM]
CCOC(=O)c1c(C)[nH]c(C(=O)COC(=O)CNC(=O)c2ccccc2Cl)c1C	3.4	-1.4	14.3%	0.3	-4.7	-7.4%[15.4 µM]
COC(=O)[C@@H]1OC(=O)[C@H]2O[C@@]23[C@@]1(C)CC[C@@H]1[C@@]2(C)C=CC(=O)OC(C)(C)[C@@H]2CC(=O)[C@]13C	-1.3	8.0	-1.5%	8.2	-0.8	/

Bioassay records: PubChem BioAssay, National Center for Advancing Translational Sciences (NCATS)
